# Rango dissoc inh: qHTS Assay for Inhibitors of RanGTP induced Rango (Ran-regulated importin-beta cargo) - Importin beta complex dissociation; 0.071% of 340,000 active; Biochemical FRET Rango-importin beta, RanGTP-induced dissociation; Potency, µM (doses to about 46.1 µM), for inactives: top-dose activity change, negative = inhibition; active means falling FRET ratio curve, often poorly fitted, with flat reads before Ran was added; inconclusive means other falling curves, or compound fluorescence or quenching; inactive means flat or rising ratio curve;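 further: potency means the concentration at half of the fitted maximal effect; % of control where 0% means no effect; nearly all actives have a fitted effect of over 45% in size; -100% = wells without RanGTP and RCC1; the record marks most hits as doubtful in a second field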
#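 FRET read at 45 min, room temperature: inhibitors block the CFP/YFP signal rise when RanGTP (0.6 uM Ran, 2 mM GTP, 0.2 uM RCC1) frees Rango (0.1 uM) from importin beta (0.25 uM). Pre-read after 5 min compound exposure flags interference.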
# Rango-impB inh: qHTS Assay for Inhibitors of Rango (Ran-regulated importin-beta cargo) - Importin beta complex formation; Importin subunit beta-1 (Homo sapiens), Q14974; Rango CFP/YFP FRET sensor + importin beta, 45 min; AID 540263, 2011; Potency, µM (highest dose often 92.2 µM), for inactives: top-dose inhibition of complex formation; 0.031% of 340,000 active; active = rising FRET ratio curve, often small or poorly fitted; inconclusive = mostly compound fluorescence or quenching in the first reads; inactive = flat curves in all reads;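 further: potency means the concentration at half of the fitted maximal effect; 0% = DMSO wells and 100% = buffer wells lacking importin beta; nearly all actives have a fitted effect of over 15% in size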
#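 FRET biosensor (snurportin 1 IBB flanked by EYFP and cerulean), 50 nM, with compound 5 min, then 0.125 microM importin beta in PBS, 1 mM DTT, 0.02% Tween-20, 0.1% BSA. CFP/YFP ratio read after 45 min at room temperature; pre-read flags interference.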
# GLA inh pH 4.5: qHTS Assay for Inhibitors of Human alpha-Galactosidase at pH 4.5; Alpha-galactosidase A (Homo sapiens), P06280; purified enzyme, 4-MU-alpha-Gal fluorescence, pH 4.5; activity change, negative = inhibition, % at 105 µM; 230,000 tested, under 10 active; AID 1467, 2008; inconclusive = small, poorly fitted or top-dose-only inhibition, or a rising curve; inactive = flat fitted curve, though single readings scatter; no compound was filed as active;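 further: 0% = full activity with enzyme and -100% = basal without enzyme; dose as in the result columns while the protocol names 77 µM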
# Target sequence (P06280 whole entry, looked up): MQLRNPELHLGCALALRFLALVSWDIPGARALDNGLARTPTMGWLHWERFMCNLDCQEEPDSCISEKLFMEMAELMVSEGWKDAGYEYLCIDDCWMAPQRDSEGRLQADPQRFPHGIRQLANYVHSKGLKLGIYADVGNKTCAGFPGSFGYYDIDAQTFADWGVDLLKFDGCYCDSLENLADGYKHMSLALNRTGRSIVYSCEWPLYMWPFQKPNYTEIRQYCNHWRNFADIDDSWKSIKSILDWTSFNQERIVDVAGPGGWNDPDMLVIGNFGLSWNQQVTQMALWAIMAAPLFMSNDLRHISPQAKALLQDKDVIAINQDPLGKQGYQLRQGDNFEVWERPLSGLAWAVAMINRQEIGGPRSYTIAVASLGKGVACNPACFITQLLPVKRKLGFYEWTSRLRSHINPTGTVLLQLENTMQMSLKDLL
# miR-21 reporter: qHTS Assay for Modulators of miRNAs and/orActivators of miR-21 | HeLa miR-21 FLuc reporter, luciferase, 48 h | Potency, µM (titrated, usually from 38.3 µM), without a hit: top-dose reporter change, positive = more light | 340,000 tested, under 10 active; active = well fitted rising curve with a large enough effect; inconclusive = small, poorly fitted or top-dose-only effect; inactive = no such curve, though single readings can be large or run the other way;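 further: % of control where 0% means no effect; miR-21 action dims this reporter so a rising signal means less miR-21 action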
#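 Using DMEM plus 10% FBS, HeLa miR-21-FLuc cells are incubated with test compounds (final up to about 40uM) for 48 hours; firefly luciferase signal is then imaged following reagent-mediated lysis.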
# Numbers without * were called inactive; ? = inconclusive; / = not tested or not shown; & = joins results of further samples; [ ] = dose if it differs, or a comment.
SMILES,Rango dissoc inh,Rango-impB inh,GLA inh pH 4.5,miR-21 reporter
CCc1nc(SCC(=O)NNC(=O)c2ccc(C)cc2)c2ccccc2n1,0%,-2.6%,/,-7%
Cc1ccc(NC(=O)c2ccccc2)cc1C,3%,0.8%,/,/
COc1ccc(/C=C/C(=O)OC(C)CN2CCCCC2)cc1 (centres undefined),-5%,-2.7%,/,0%
Nc1nnc(SCC(=O)OCC(=O)Nc2ccc(Br)cc2)s1,-21%,0.8%,-2,-4%
COc1cc([N+](=O)[O-])cc(/C=N/NC(=O)c2cc(C)nc3ccccc23)c1O,0%,0.4%,-12,13%
CCOC(=O)C1CCCN(C(=O)C2CC(=O)N(c3ccc(C)cc3)C2)C1 (centres undefined),3%,-2.8%,1,-3%
Cc1c(Cl)cnc(NC(=O)CSc2n[nH]c(N)n2)c1Cl,16%,5.5%,/,/
O=C(NC1CCCCCC1)c1ccc(N2CCCC2=O)cc1,20%,-0.6%,2,-42%
CC(C)CC(=O)Nc1ccc(C(=O)NNC(=O)C(c2ccccc2)c2ccccc2)cc1,-7%,?,-4,7%
Cc1c(NS(=O)(=O)c2ccc3nc(COc4ccccc4Cl)[nH]c3c2)c(=O)n(-c2ccccc2)n1C,-1%,0.5%,-3,-14%
COc1ccc(NC(=O)c2oc3ccc(S(=O)(=O)N4CCOCC4)cc3c2C)cc1,3%,1.2%,1[21.1 µM],24%&-3%
CCCc1ccc(OCc2nc(-c3ccc(NC(=O)c4cccs4)cc3)no2)cc1,-9%,3.5%,-8,-54%
Cc1ccccc1C(=O)Oc1ccc(Br)cc1C(=S)N1CCCC1,12%,-2.4%,-7,-1%
COc1cc(C(=O)NC(C)c2ccc3ccccc3c2)cc(Cl)c1O (centres undefined),-17%,-0.5%,/,2%
CCOc1ccc(NC(=O)C/C(C)=N/NC(=O)c2cnccn2)cc1,7%,4.8%,/,-14%
COC(=O)c1c(C)cc(O)c(C=O)c1O,-1%,-1.9%,/,/
O=c1c(Oc2ccccc2)coc2cc(O)cc(O)c12,-7%,-1.9%,/,/
O=C(CSc1nc(-c2cccs2)cc(C(F)(F)F)n1)NCc1ccco1,-10%,-3.8%,-4,10%
C[C@@H]1COC(=O)[C@@H](Cc2ccc(F)cc2)C/C=C\C[C@@H](CC(=O)N(CCO)Cc2ccccc2)C(=O)N1,5%,-1.7%,/,/
CC(=O)N1CCSc2ccc(S(=O)(=O)Nc3cccc(C)c3)cc21,7%,4.0%,/,18%
Cc1nc(CSc2nnc(Nc3cccc(C)c3C)s2)cs1,0%,-1.3%,17,-27%
COc1cccc(/C=C/C(=C2/C(=O)N(c3ccccc3)N=C2C)c2ccc(C)cc2)c1OC,4%,-2.1%,-7,-7%
Cc1ccc(-c2c(C#N)c(N)nc3c2CCCC3)o1,-17%,?,7,0%
Cc1ccc(NC(=O)CSc2nnc(-c3ccccn3)n2N)c(Br)c1,3%,-0.4%,-4,8%
COc1ccc(C(=O)NCCCN2CCOCC2)cc1Br,25%,0.1%,/,-3%
# Additional results
SMILES,Rango dissoc inh,Rango-impB inh,GLA inh pH 4.5,miR-21 reporter
COc1cccc(NC(=O)C(=O)N/N=C(\C)CC(=O)Nc2ccc(NC(C)=O)cc2)c1,15%,-0.8%,/,-53%
Cc1cc(C)nc(Nc2ccccc2F)n1,21%,1.1%,/,0%
Nc1nnnn1/N=C/c1ccc(Cl)cc1,2%,-0.2%,/,-8%
CSc1ccc(/C=N\NC(=O)COc2ccc(Cl)cc2Br)cc1,-13%,-4.6%,-11,1%
CC(=O)NCCC(=O)N1CCCC(N2CCN(c3cccc(Cl)c3)CC2)C1 (centres undefined),5%,?,/,-22%
O=C(Nc1ccc(CN2CCCCC2)cc1)c1cccc(Br)c1,3%,6.2%,1,-41%
COc1cccc(C(=O)O/N=C(\N)CS(=O)(=O)c2ccccc2)c1,15%,-0.4%,/,-44%
CCN(CC)C(=O)CSc1nnc(NC(=O)CCc2ccccc2)s1,-10%,-3.3%,-1,-1%
CCN1CCN(c2cc(C)c3cc(NC(=S)N4CCN(c5ccccc5F)CC4)ccc3n2)CC1,-9%,-0.3%,-3,3%
COc1ccc(-n2c(SCC(=O)O)nnc2-c2ccc(NC(=O)c3ccccc3)cc2)cc1,0%,-4.1%,-3,-2%
Cc1ccccc1-n1c(C)nnc1SCC(=O)N1CCc2ccccc2C1,-8%,-5.9%,1,-1%
Cc1ccc(C(=O)N/C(=C\c2ccc(-c3ccccc3[N+](=O)[O-])o2)C(=O)NCCCN2CCOCC2)cc1,?,?,/,12%
CCNC(=O)c1ccccc1-c1nc(-c2ccccc2Cl)no1,-8%,0.1%,-9,-19%
N#CCC(=O)NCCCOC(=O)Nc1ccc(Cl)c(Cl)c1,2%,0.6%,5,-9%
Cn1nnnc1SCc1cn2cccnc2n1,-22%,?,1,-1%
CC1CCCN(C(=O)CSCC(=O)N=c2sc3ccccc3n2C)C1 (centres undefined),0%,0.4%,10,-11%
Cc1ccc(C(=O)NCC(=O)Nc2ccccc2C(F)(F)F)cc1,-3%,0.6%,3,-4%
Cc1cc(Oc2ccccc2F)nc(NCc2ccccc2)n1,-17%,5.9%,-5,2%
CCc1ccc(NC(=O)CSc2nnc(-c3cccs3)n2CC)cc1,29%,-0.7%,-19,-1%
O=C(O)C(Cc1ccccc1)Nc1ccc([N+](=O)[O-])cc1[N+](=O)[O-] (centres undefined),-22%,?,/,-19%
C[C@H](NC(=O)c1ccccc1)C(=O)OCC(=O)c1c[nH]c2ccccc12,?,0.2%,/,/
Cc1ccccc1OCC(=O)N1CCN(C(=O)COc2ccccc2C)CC1,1%,-1.9%,/,-4%
CCCN1C(=O)/C(=C/c2c(N3CCNC(=O)C3CC(=O)OCC)nc3c(C)cccn3c2=O)SC1=S (centres undefined),?,?,-14,4%
O=C(Cn1cnc([N+](=O)[O-])c1)NCCc1ccccc1,7%,0.7%,/,-1%
CCOc1ccc(NC(=O)CCS(=O)(=O)c2ccc3c(c2)CCCN3C(C)=O)cc1,2%,-1.0%,-2,-3%

# Full records, quoted from the list. Values in the order: Rango dissoc inh	Rango-impB inh	GLA inh pH 4.5	miR-21 reporter
# COc1ccc(C(=O)NCCCN2CCOCC2)cc1Br is listed with 25%	0.1%	/	-3%
# O=c1c(Oc2ccccc2)coc2cc(O)cc(O)c12 is listed with -7%	-1.9%	/	/

# Additional entries
SMILES,Rango dissoc inh,Rango-impB inh,GLA inh pH 4.5,miR-21 reporter
O=C(CSc1ccc(-c2nc3ccccc3[nH]2)cn1)Nc1ccc(S(=O)(=O)NC2CC2)cc1,-18%,-6.4%,-17,-14%
CCCCn1c(N)c(N(CCOC)C(=O)c2ccc(Cl)c(S(=O)(=O)N3CCCCC3)c2)c(=O)[nH]c1=O,?,3.3%,/,/
Cc1c(Cl)cnc(NC(=O)COC(=O)Cc2coc3ccc4ccccc4c23)c1Cl,-10%,0.1%,4,-4%
O=C(O)c1ccc(/C=N/NC(=O)c2cc3c(ccc4ccccc43)o2)cc1,0%,-1.8%,/,-4%
CCC1Oc2ccccc2N(CC(=O)NC2CC2)C1=O (centres undefined),0%,-3.0%,/,1%
O=C(COc1ccccc1[N+](=O)[O-])NCc1cccnc1,0%,?,-1,-4%
Cc1c(C(=O)O)cccc1-c1ccc(/C=N/Nc2ccc(Br)cc2)o1,?,?,2,-30%
CCOc1ccc(NC(=O)c2ccc(N)cc2)cc1,-7%,-4.9%,3,-2%
Cn1c(SCc2nc3ccccc3[nH]2)nnc1-c1cccs1,4%,1.2%,1,-6%
COc1ccc(CNC(=O)C2COc3ccccc3O2)c(OC)c1 (centres undefined),1%,-2.5%,-3,-58%
Brc1cccc(OCCn2ccnc2)c1,-3%,0.4%,5,-4%
CCCC(c1nnnn1C1CCCCC1)N1CCN(C2CCCC2)CC1 (centres undefined),-2%,-0.6%,1,-2%
O=C(N/N=C/c1cc(Cl)cc([N+](=O)[O-])c1O)c1cc(-c2ccccn2)nc2ccccc12,10%,-0.4%,1,0%
CCc1sc(C(=O)NCc2ccccc2)cc1C,0%,3.4%,8,-24%
NC(=O)c1cc(Cl)cn(-c2ccccc2)c1=O,3%,-0.5%,1,1%
COC(=O)C1CCN(S(=O)(=O)c2cc3c4c(c2)CCN4C(=O)CC3)CC1,-18%,-2.0%,/,/
O=S(=O)(NCc1ccc2c(c1)OCO2)c1cccc(S(=O)(=O)N2CCOCC2)c1,-1%,-2.1%,-5,-7%
CN(Cc1ccccc1)S(=O)(=O)c1ccc(Cl)c(C(=O)NCc2ccncc2)c1,16%,-1.5%,/,/
Cc1cc(C)n(Cc2cccc(C(=O)N/N=C/c3cccnc3)c2)n1,-3%,5.1%,/,-19%
Cc1cccc(C)c1-n1nnnc1SCC(=O)c1c(N)n(C2CC2)c(=O)[nH]c1=O,0%,-0.9%,/,/
O=C(c1ccc(COCC(F)(F)F)o1)N1CCCC1,10%,4.3%,3,-1%
CNC(=O)c1oc(-c2ccccc2)nc1C,1%,-0.6%,5,2%
Cc1ccc(S(=O)(=O)Nc2ccc(-n3cnnn3)cc2)cc1,-7%,-2.4%,/,-21%
COC(C[C@@H]1O[C@H]1C(=O)[C@@H](C)OCc1ccccc1)OC,4%,-0.9%,/,/
COc1ccc(NC(=O)CC2C(=O)N(c3ccc(OC)cc3)C(=O)N2C(C)C)cc1 (centres undefined),0%,?,0,-15%
# Next section:
SMILES,Rango dissoc inh,Rango-impB inh,GLA inh pH 4.5,miR-21 reporter
CCOC(=O)C1CCN(C(=O)Nc2cccc(OC)c2)CC1,21%,-0.1%,1,-2%
CCS(=O)(=O)c1ccc(O)c(NC(=O)COc2ccc(Br)cc2)c1,-13%,0.2%,10,-12%
CC(=O)c1ccc(NC(=O)C(C)OC(=O)CCCN=C2NS(=O)(=O)c3ccccc32)cc1 (centres undefined),9%,1.2%,/,/
O=C(CN1C(=O)NC(Cc2c[nH]c3ccccc23)C1=O)NCCc1ccccc1 (centres undefined),7%,-1.3%,/,3%
CCSc1cnn(-c2ccccc2)c(=O)c1Cl,-9%,-1.6%,/,/
Cc1ccc(CN2CCN(/N=C\C=C\c3ccccc3)CC2)cc1,33%,-3.5%,-12,0%
CN(Cc1ccno1)Cc1cn(Cc2ccccc2)nc1-c1ccc2c(c1)OCO2,2%,-1.8%,-9,-2%
Cc1ccccc1OCCn1ccnc1,21%,-2.1%,/,-8%
O=S(=O)(c1ccccc1)N1CCN=C1SCc1ccccc1Cl,1%,1.0%,2,-17%
CC(=O)NC(CCC(=O)O)C(=O)O (centres undefined),1%,5.0%,3,/
Cc1ccc(C)c(S(=O)(=O)Nc2ccc(S(=O)(=O)Nc3onc(C)c3C)cc2)c1,7%,0.4%,3,1%
Cc1nn(-c2ccccc2)c2c1C(c1ccc(F)cc1)C(C#N)=C(N)O2 (centres undefined),-21%,?,6,-2%
CCN1CCCC1CNCc1cccc(OC)c1OCc1ccc(F)cc1 (centres undefined),0%,?,4,-10%
O=C(Nc1cccnc1)c1cc(-c2cccnc2)nc2ccc(Br)cc12,-6%,-4.8%,-3,1%
Cc1c(NC(=O)CSCc2c(F)cccc2Cl)c(=O)n(-c2ccccc2)n1C,7%,-2.6%,-1,0%
O=C(Cn1cc(S(=O)(=O)Cc2ccccc2)c2ccccc21)Nc1ccccc1,-13%,?,-15,0%
Cc1cccn2c(=O)c(/C=C(\C#N)C(N)=O)c(N3CCN(Cc4ccc5c(c4)OCO5)CC3)nc12,?,?,-7,-24%
CC(C)(Oc1ccc(Cl)cc1)C(=O)Nc1cccc(S(=O)(=O)NC2=NCCC2)c1,-12%,1.2%,/,/

# Three structures from above, ordered by count of non-hydrogen atoms, rising.
SMILES,Rango dissoc inh,Rango-impB inh,GLA inh pH 4.5,miR-21 reporter
Cc1ccc(CN2CCN(/N=C\C=C\c3ccccc3)CC2)cc1,33%,-3.5%,-12,0%
CC(=O)c1ccc(NC(=O)C(C)OC(=O)CCCN=C2NS(=O)(=O)c3ccccc32)cc1 (centres undefined),9%,1.2%,/,/
Cc1cccn2c(=O)c(/C=C(\C#N)C(N)=O)c(N3CCN(Cc4ccc5c(c4)OCO5)CC3)nc12,?,?,-7,-24%

# Source: PubChem BioAssay (National Center for Advancing Translational Sciences (NCATS))

# Only part of the results is shown; the hit share may differ from the screen's.
